# Mtb bLac sens: beta-lactam sensitization of Mtb H37Rv; 330,000 compounds, 0.27% hits; inhibition, % at 25 µM; M. tuberculosis H37Rv growth with meropenem, percent inhibition; hits of this screen are not shown here; AID 434955;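 active = about 74% or more and at least 40 points above the plate without the antibiotic, then above 30% in a dose series; inconclusive = first-round hits that could not be retested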;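 note: growth measured after seven days incubation then overnight dye step; 0% = bacteria only wells and 100% = bacteria with antibiotic; twin plates without the antibiotic show which effects depend on it; some results filed as inactive read as strong as hits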
# Arbovirus inh: antivirals against arbovirus infection; inhibition, % at 10 µM; 200,000 compounds, 0.37% hits; AID 1251; arbovirus infection cell-based antiviral screen;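 active = inhibition from about 30%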;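 note: bluetongue infection of BSR cells; cell survival read as ATP light after 72 h; 0% = infected wells without compound and 100% = uninfected wells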
# RecA splice inh: blocks M. tuberculosis RecA intein splicing. P9WHJ3. 290,000 compounds, 0.75% hits. cell-free RecA intein splicing, fluorescence. inhibition, %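 (about 9 µM by stock and volumes)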; in the data active = inhibition above about 30%; inconclusive = no clear call, values can overlap the other calls;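 note: 0% = vehicle wells and 100% = reference inhibitor control wells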
# Target sequence (P9WHJ3 whole entry, looked up, canonical isoform): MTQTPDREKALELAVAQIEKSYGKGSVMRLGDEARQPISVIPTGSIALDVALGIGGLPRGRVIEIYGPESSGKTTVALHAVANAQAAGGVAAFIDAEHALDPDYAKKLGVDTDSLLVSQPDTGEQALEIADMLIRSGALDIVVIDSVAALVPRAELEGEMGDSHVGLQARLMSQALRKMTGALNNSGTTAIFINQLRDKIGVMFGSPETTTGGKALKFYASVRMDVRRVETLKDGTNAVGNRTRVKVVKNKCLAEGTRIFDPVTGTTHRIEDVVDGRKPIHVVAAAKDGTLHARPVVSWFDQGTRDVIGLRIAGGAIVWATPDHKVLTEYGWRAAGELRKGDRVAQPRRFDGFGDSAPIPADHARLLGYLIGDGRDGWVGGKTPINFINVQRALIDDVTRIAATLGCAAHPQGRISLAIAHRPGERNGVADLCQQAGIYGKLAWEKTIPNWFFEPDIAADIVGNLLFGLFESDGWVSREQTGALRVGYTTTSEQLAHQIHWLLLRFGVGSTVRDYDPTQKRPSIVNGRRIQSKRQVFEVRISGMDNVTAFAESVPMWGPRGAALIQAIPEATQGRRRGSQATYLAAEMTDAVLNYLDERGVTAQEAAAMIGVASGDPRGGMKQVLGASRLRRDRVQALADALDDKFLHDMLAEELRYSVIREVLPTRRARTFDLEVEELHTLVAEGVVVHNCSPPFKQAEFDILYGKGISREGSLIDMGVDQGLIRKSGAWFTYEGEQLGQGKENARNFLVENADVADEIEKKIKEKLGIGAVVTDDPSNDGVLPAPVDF
# YopH inh: inhibitors of Yersinia enterocolitica YopH tyrosine phosphatase; inhibition, %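 (about 10 µM by stock and volumes)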; fluorescence Ex485/Em525; AID 898; 140,000 compounds, 0.16% hits;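 active = inhibition of 50% or more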;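 note: controls were vehicle for no effect and minimum signal wells for full effect; inactives centre near -20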
# Mtb H37Rv: M. tuberculosis H37Rv growth inhibitors, H37Rv strain (AID 1626) | 220,000 compounds, 0.95% hits | inhibition, % at 10 µM, or IC50 in µM where a hit was titrated | M. tuberculosis H37Rv growth inhibition; higher % means a stronger effect;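 active = confirmed in a dose series; inconclusive = inhibition above 80% but not taken into the dose series; inactive = below 80% or under 30% at every dose of the series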;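 note: bacteria incubated seven days before Alamar blue readout; 0% = bacteria only wells and 100% = bacteria with antibiotic wells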
# Arbovirus inh repeat: recorded beside Arbovirus inh, whose call it bears; inhibition, %; measured here: 10K subset replicate screen; many hits read low in the repeat;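 first of two repeat runs on a subset; 0% = infected and 100% = uninfected wells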
# Numbers without * were called inactive; ? = inconclusive; . = no result given. Some of the compounds tested; the hit share may differ from the screen's.
SMILES,Mtb bLac sens,Arbovirus inh,RecA splice inh,YopH inh,Mtb H37Rv,others
CC(NC(=O)c1cccc(C(F)(F)F)c1)C1CCCO1 (configuration not stated),-20,-1,-0.9,-14,1%,
CC(=O)OC1CC[C@@]2(C)C(=CC(=O)C3C4CCC(OC(C)=O)[C@@]4(C)CCC32)C1 (some centres not stated),-1,.,-0.5,.,.,
O=C1/C(=C/c2ccncc2)N2CCC1CC2,-5,-10,-0.5,.,-8%,
NC(C(=O)O)C1CC(Cl)=NO1 (configuration not stated),77,-4,-5.8,-28,.,
CN1CCCN(C(=O)c2ccc(Br)cc2)CC1,-7,.,0.9,.,.,
CCc1ccccc1NC(=S)N(CCCN1CCN(C)CC1)Cc1cccs1,-2,1,-1.3,.,1%,
COc1ccccc1N1CCN(C(=O)CSc2ncccc2-c2nc3ccccc3[nH]2)CC1,37,-4,-1.2,0,7%,
COc1ccc(Cn2nnnc2C(c2ccc(N(C)C)cc2)N2CCC(C)CC2)cc1 (configuration not stated),-5,-8,2.3,-17,1%,
O=C(COc1ccc([N+](=O)[O-])cc1)N1CCN(c2nnc(-c3ccccc3)c3ccccc23)CC1,5,.,-0.6,.,-1%,
O=C(Cc1ccc(Br)cc1)N1CCN(c2ccc(F)cc2)CC1,45,20,-0.9,-2,5%,
Brc1ccccc1-c1cnco1,-2,8,1.1,.,-1%,
CC(C)Oc1ccc(C2CC(=O)N(c3ccc(N(C)C)cc3)C2=O)cc1 (configuration not stated),-15,-4,.,28,-2%,

# Compounds above that have sulfur, in the order listed:
SMILES,Mtb bLac sens,Arbovirus inh,RecA splice inh,YopH inh,Mtb H37Rv,others
CCc1ccccc1NC(=S)N(CCCN1CCN(C)CC1)Cc1cccs1,-2,1,-1.3,.,1%,
COc1ccccc1N1CCN(C(=O)CSc2ncccc2-c2nc3ccccc3[nH]2)CC1,37,-4,-1.2,0,7%,

# Following part.
SMILES,Mtb bLac sens,Arbovirus inh,RecA splice inh,YopH inh,Mtb H37Rv,others
CC(C)c1onc(C(=O)N2CCCCC2C)c1[N+](=O)[O-] (configuration not stated),-3,0,3.0,-26,3%,
CC(C)=CC1C(C(=O)Nc2ccc(Br)cn2)C1(C)C (configuration not stated),89,-3,9.7,-34,.,Arbovirus inh repeat=3
Cc1cc(C)cc(NC(=O)c2ccc(CN3CCc4ccccc4C3)cc2)c1,19,.,0.6,.,.,
C=C(C)COc1ccc2c(C)c(CC(=O)OC)c(=O)oc2c1C,8,-21,.,20,17%,
CCOc1cccc2sc(N(CCN(C)C)C(=O)c3cc4ccccc4cc3OC)nc12,61,.,2.6,.,.,
O=c1[nH]c(SCCOc2ccccc2F)nc2ccccc12,-2,-9,-0.3,.,-4%,
CC(C)NC(=O)CN(C(=O)CCC(=O)Nc1nccs1)c1ccc2c(c1)OCO2,2,.,2.3,.,.,
Cc1n[nH]c(C)c1-c1nc2ccccc2[nH]1,4,0,0.7,-45,-3%,
Cc1ccc2c(C)nc(SC(C(=O)c3ccccc3)c3ccccc3)nc2c1 (configuration not stated),-5,-3,-1.8,-6,11%,
COc1ccc(CCNC(=O)CSc2cn(Cc3ccccc3)c3ccccc23)cc1OC,3,14,-7.1,-25,1%,
CCOC(=O)C1=C(C)N(CCCC(=O)O)C(=O)NC1c1ccc(OC)cc1 (configuration not stated),0,10,-1.8,-42,10%,
C/C(=N\O)C(C)NC(=O)c1ccccc1 (configuration not stated),-1,6,5.1,-28,2%,
CCOc1ccc(CCNC(=O)c2cccc(S(=O)(=O)N3CCCCC3)c2)cc1OCC,-6,.,-1.2,.,.,
Cc1ccccc1-n1nnnc1SCC(=O)Nc1ccc(N2CCN(C)CC2)cc1,13,.,2.5,.,.,
Cc1ccc(C(=O)N/N=C(/CC(=O)c2cccs2)C(F)(F)F)cc1,100,24,3.2,-59,?,
Cc1c(CCO)c(=O)n(-c2ccccc2)n1S(=O)(=O)c1c(Cl)cc(Cl)cc1Cl,8,11,10,-6,6%,
COc1ccc(C2CC(=O)c3cnn(-c4nc(C)cc(C)n4)c3C2)cc1 (configuration not stated),4,-15,-1.9,.,11%,
CCOc1ccccc1NC(=O)CCC(=O)O,-1,-4,-2.8,-4,-9%,
O=C(O)c1cc2c(cc1NC(=O)c1c(F)cccc1F)OCCCO2,1,.,1.6,.,.,
O=C(CSc1nnc(-c2ccncc2)n1-c1ccc(F)cc1)NC(=O)NCc1ccco1,-10,6,-3.1,-24,5%,
O=C(NCCc1ccccc1)c1ccc(-c2ccccc2C(F)(F)F)o1,55,-25,.,-18,3%,
O=C(CCCN1C(=O)S/C(=C/c2ccccc2)C1=S)Nc1ccc(C(=O)O)cc1,3,.,14,.,.,
CN(CCCNC(=O)Cn1cc2c(n1)CCCC2)C1CCCCC1,-2,5,-0.3,-47,-5%,Arbovirus inh repeat=-3
O=C(CSc1nnc(Cc2ccccc2)n1-c1ccccc1)N1CCOCC1,8,10,.,-40,1%,

# Structures from the list above with a nitro group on carbon (two):
SMILES,Mtb bLac sens,Arbovirus inh,RecA splice inh,YopH inh,Mtb H37Rv,others
O=C(COc1ccc([N+](=O)[O-])cc1)N1CCN(c2nnc(-c3ccccc3)c3ccccc23)CC1,5,.,-0.6,.,-1%,
CC(C)c1onc(C(=O)N2CCCCC2C)c1[N+](=O)[O-] (configuration not stated),-3,0,3.0,-26,3%,

# In the list so far, two have two or more sulfur atoms:
SMILES,Mtb bLac sens,Arbovirus inh,RecA splice inh,YopH inh,Mtb H37Rv,others
CCc1ccccc1NC(=S)N(CCCN1CCN(C)CC1)Cc1cccs1,-2,1,-1.3,.,1%,
O=C(CCCN1C(=O)S/C(=C/c2ccccc2)C1=S)Nc1ccc(C(=O)O)cc1,3,.,14,.,.,

# Next part:
SMILES,Mtb bLac sens,Arbovirus inh,RecA splice inh,YopH inh,Mtb H37Rv,others
CCC(OC(=O)c1nsc(Cl)c1Cl)C(=O)NCCOC (configuration not stated),-3,4,-0.4,.,2%,
Cc1noc(C)c1C(=O)Nc1nc(-c2ccc([N+](=O)[O-])cc2)cs1,81,.,3.3,.,.,
ONC(=Nc1ccccc1)c1ccc(Cl)cc1,2,6,29,-28,4%,
CC(C)N(Cc1ccccc1)S(=O)(=O)N(C)C,-12,0,-1.4,-8,-6%,
Cc1cc(Nc2ccc(C)c(F)c2)n2ncnc2n1,-12,-6,3.8,-26,-13%,
CCC(C)(C)n1nnnc1CN1CCSCC1,-3,8,2.1,-19,-3%,
CC(C)N1CCN(C(=O)c2ccc([N+](=O)[O-])cc2)CC1,-2,.,-0.6,.,.,
CCCCc1ccc(Nc2ncnc3nc[nH]c23)cc1,4,-18,-2.7,-48,.,Arbovirus inh repeat=-10
COc1ccc(C(=O)NCC(=O)OCc2cccc(Br)c2)cc1,1,0,0.9,-5,-2%,
COc1ccc(/C=C2\SC(=S)N(CCC(=O)Nc3cccc(O)c3)C2=O)cc1OC,-3,.,2.2,.,.,
CNC(=O)C1(C(F)(F)F)C/C(=C\CCO)CCCO1 (configuration not stated),-8,.,-2.2,.,.,
CC(=O)Nc1ccc(OC(=O)c2cc3cc(Br)cc(Br)c3oc2=O)cc1,8,1,-1.8,-10,2%,
O=C(NNC(=O)c1cc(Cl)ccc1O)c1ccc(NS(=O)(=O)c2cccs2)cc1,6,.,16,.,.,
O=C(/C=C/c1cccc([N+](=O)[O-])c1)NCCc1ccc(F)cc1,-2,-12,1.5,-22,6%,
Cc1ccc2c(CN3CCCCC3)cc(=O)oc2c1,3,.,1.0,.,.,
CCOc1ccccc1-n1c(SCC(=O)N(C(C)C)C(C)C)nnc1-c1cccnc1,-1,3,-0.2,-33,-6%,
COc1ccccc1C(NC(=O)CC(C)C)c1c(O)ccc2ccccc12 (configuration not stated),0,.,-5.3,.,.,
CCCn1c(C(C)NS(=O)(=O)c2ccccc2)n[nH]c1=S (configuration not stated),-6,.,-1.7,.,.,
C=C1C(=O)C=C[C@]2(C)C[C@@H]3OC(=O)[C@](C)(O)[C@H]3C[C@@H]12,2,.,1.4,.,-10%,
Cc1c(NC2=CC(=O)CCC2)c(=O)n(-c2ccccc2)n1C,2,3,-0.6,.,7%,
CCCn1c(SC(C)C(=O)NCC2CCCO2)nc2sc3c(c2c1=O)CCC3 (configuration not stated),4,.,0.8,.,.,
O=C(CNC(=O)c1ccco1)Nc1ccc(OC(F)F)cc1,1,.,-1.2,.,.,
COc1cc(CNCC2CCCO2)ccc1OCC(N)=O (configuration not stated),0,4,-1.3,.,5%,
O=C(NCCCn1ccnc1)C1CCN(S(=O)(=O)c2ccc(F)cc2)CC1,2,.,-0.6,.,.,

# Structural class: the entries above containing a furan ring, fused or not.
SMILES,Mtb bLac sens,Arbovirus inh,RecA splice inh,YopH inh,Mtb H37Rv,others
O=C(CSc1nnc(-c2ccncc2)n1-c1ccc(F)cc1)NC(=O)NCc1ccco1,-10,6,-3.1,-24,5%,
O=C(NCCc1ccccc1)c1ccc(-c2ccccc2C(F)(F)F)o1,55,-25,.,-18,3%,
O=C(CNC(=O)c1ccco1)Nc1ccc(OC(F)F)cc1,1,.,-1.2,.,.,

# Further entries follow:
SMILES,Mtb bLac sens,Arbovirus inh,RecA splice inh,YopH inh,Mtb H37Rv,others
CCN(CC)C(=O)CSc1nc2nc(C)cc(C)c2c(=O)[nH]1,5,1,1.8,-36,-12%,
O=C(CN1CCN(C(=O)c2ccco2)CC1)NCc1ccc(Cl)cc1,-4,.,0.7,.,.,
Cc1ccc(S(=O)(=O)N/N=C/c2ccccc2O)cc1,?,.,-1.4,.,.,
CC(C)CC1Nc2ccc(C(=O)NCCCN3CCCCC3C)cc2NC1=O (configuration not stated),3,.,1.7,.,.,
Cc1ccc(NC(=O)COC(=O)CNC(=O)c2ccc(Br)cc2)c(C)c1,-6,-1,-1.7,-3,-6%,
CCOC(=O)C1=C(c2ccccc2)Nc2ncnn2C1c1cccc(O)c1 (configuration not stated),-7,.,-1.1,.,2%,
CC(=O)C1=C(C)NC2(O)c3ccccc3C(=O)C12O (configuration not stated),-3,-2,-3.7,.,0%,
CC(C)c1c(O)nc(SCc2ccc(F)cc2)[nH]c1=O,5,.,-1.5,.,.,
CCN1C[C@]2(CO)CC[C@H](OC)[C@@]34C2[C@H](OC)[C@@](O)(C13)[C@@]1(O)C[C@H](OC)[C@H]2C[C@@H]4[C@@H]1[C@H]2OC,?,.,-0.2,.,.,
COc1ccc(CCNC(=O)c2cccs2)cc1OC,3,0,-1.2,.,3%,
O=C(C1=C[C@H](c2ccccc2)C[C@H](OCc2ccc(CO)cc2)O1)N1CCOCC1,4,0,-0.3,.,-1%,
O=C(COC(=O)c1ccncc1)c1ccccc1,8,5,0.2,.,-4%,
CCOC(=O)N1CCN(C(=O)C2CCN(S(=O)(=O)c3ccc(C)cc3)CC2)CC1,2,25,-3.9,-9,-7%,
COC(=O)C1CCN(Cc2c(C(=O)N3C[C@@H](C)O[C@@H](C)C3)nc3ccc(Cl)cn23)CC1,0,.,-0.1,.,.,
COc1ccc(N(CC(=O)Nc2ccccc2OC)S(=O)(=O)c2ccc(NC(C)=O)cc2)cc1,7,.,1.3,.,.,
COCCn1c(C)cc(C(=O)COc2ncnc3ccc(Br)cc23)c1C,1,0,1.8,.,-8%,
O=C(COC(=O)CSc1ccc2ccccc2c1)NC1CC1,5,-1,3.7,-24,-1%,
COc1cc(/C=C/C(=O)O)cc(S(=O)(=O)Nc2ccccc2Cl)c1OC,-2,15,1.1,-44,0%,
